Compound activity as filed in PubChem BioAssay.
StopGo reporter – lowers the luciferase signal of an FMDV 2A StopGo reporter | human cells with a luciferase reporter of 2A StopGo recoding; control for the full effect not named in the record | Potency, µM (doses to about 57.9 µM), for the others: at the highest dose signal change, negative = less light | hit rate 1.2% among 410,000 | AID 1159524; active = well fitted falling curve with a large enough effect; inconclusive = small, poorly fitted or top-dose-only effect; inactive = no such curve, though single readings can be large or run the other way; tested in HEK293T cells; also: nearly all actives have a fitted effect of over 45% in size; luciferase light after 4 h
RE007 growth inh – less growth of the S. pombe RE007 Vpr strain; Potency, µM (highest dose often 92.2 µM), without a hit: at the top dose activity change, negative = less growth; hit rate 0.21% among 360,000; S. pombe RE007 Vpr strain, BacTiter-Glo ATP luminescence, 24 h; control for the full effect not named in the record; active = well fitted falling curve with a large enough effect; inconclusive = small, poorly fitted or top-dose-only effect; inactive = no such curve, though single readings can be large or run the other way;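 also: nearly all actives have a fitted effect of over 50% in size; the assay follows cell death caused by Vpr and the record does not say whether a fall means rescue or toxicity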
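Fission yeast strain RE007, carrying one chromosomally integrated HIV-1 vpr copy, was seeded at OD 0.01 in PMG+AL medium with 23 nL pinned compound. After 24 h at 30 °C and 99% humidity, viability was read by BacTiter-Glo luminescence.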
* hit, by the source's call; ? = inconclusive; [ ] = dose if it differs, or a comment. % is scaled to controls: 0 for no effect and ±100 for the full control effect; potency is read from the fitted curve at half-maximal effect.

Results follow in this order: StopGo reporter, RE007 growth inh
CC(C)C[C@@H](CN)NC(=O)c1nc[nH]c1C(=O)N[C@@H](Cc1ccccc1)C(=O)CNC[C@H](C)NC(=O)c1nc[nH]c1C(=O)N[C@@H](C)C(=O)O
 : -24%, -9%
COc1cccc(CNC(=O)[C@@H]2CCCN2C(=O)[C@H]2CCCCN2C(=O)c2ccccc2)c1
 : -22%, 7%
CC1(Oc2ccccc2)CCN(Cc2ccc(-c3ccccn3)cc2)C1 (stereo not drawn)
 : -15%, -28%[18.4 µM]
CCC(=O)N1CCC1(C)C(=O)Nc1cccc2cccnc12 (stereo not drawn)
 : -9%, 2%[18.4 µM]
O=C(OCc1cn([C@H]2C[C@H](c3ccc(Cl)cc3)N(CC3CCCCC3)C[C@@H]2O)nn1)c1ccccc1
 : -12%, 1%
Nc1[nH]c(C(=O)c2ccccc2)c(-c2ccc(Cl)c(F)c2)c1C(=O)NCCc1c[nH]c2ccccc12
 : -2%, -16%
COc1ccccc1C#Cc1cnc2c(c1)C(=O)N([C@H](C)CO)C[C@@H](C)[C@@H](CN(C)C(=O)c1ccc3c(c1)OCO3)O2
 : -8%, -4%
COc1cc(CNc2ncnc3c2ncn3[C@H]2CN(CCN3CCOCC3)C[C@@H](CO)O2)cc(OC)c1OC
 : -15%, 1%
CCc1nc2c(OCC3COc4ccccc4O3)cccn2c1N(C)C(=O)c1ccc(OC)cc1 (stereo not drawn)
 : -22%, -11%
O=S(=O)(c1cc(Cl)cc(Cl)c1)N1Cc2cc(-c3ccccc3)ccc2-n2nncc2C1
 : -12%, -4%
C=CC[N+]1(C)CC[C@]23c4c5ccc(O)c4O[C@H]2C(=O)CC[C@@]3(O)[C@H]1C5 (stereo partly drawn)
 : -7%, -2%[18.4 µM]
COc1ccc(NC(=O)CN2c3cccc4cccc(c34)S2(=O)=O)cc1OC
 : ?, 2%
CC1=C(C(=O)OCc2ccccc2)C(c2ccccc2OS(=O)(=O)c2ccc([N+](=O)[O-])cc2)NC(=O)N1CCCC(=O)O (stereo not drawn)
 : -18%, -1%
CCCCNc1c(-c2ccc(SC(C)CC)cc2)nc2ccc(Cl)cn12 (stereo not drawn)
 : 13%, 19%
NCC1C2CCC(O2)C1CO (stereo not drawn)
 : -7%, 15%
OCCN1CCN(c2ncnc3c2ncn3[C@H]2CN(Cc3ccc(-c4ccccc4)cc3)C[C@@H](CO)O2)CC1
 : ?, -1%
C=CCOc1ccc(C2NC(=O)c3ccccc3O2)cc1OC (stereo not drawn)
 : -11%, -20%
COc1cc(C(O)c2nc(-c3cncnc3)cs2)ccc1F (stereo not drawn)
 : -8%, 3%[18.4 µM]
O=C(O)C(CCc1ccccc1)N1CCOCC1 (stereo not drawn)
 : 0%, 0%
Cc1ccc2nc(-c3ccc(F)cc3)c(Cc3cccc(Cl)c3)n2c1
 : 6%, ?

Given as tab-separated lines: two of the compounds above.
SMILES	StopGo reporter	RE007 growth inh
NCC1C2CCC(O2)C1CO (stereo not drawn)	-7%	15%
C=CC[N+]1(C)CC[C@]23c4c5ccc(O)c4O[C@H]2C(=O)CC[C@@]3(O)[C@H]1C5 (stereo partly drawn)	-7%	-2%[18.4 µM]

Rewritten with tabs: four of the compounds above.
structure	StopGo reporter	RE007 growth inh
OCCN1CCN(c2ncnc3c2ncn3[C@H]2CN(Cc3ccc(-c4ccccc4)cc3)C[C@@H](CO)O2)CC1	?	-1%
C=CCOc1ccc(C2NC(=O)c3ccccc3O2)cc1OC (stereo not drawn)	-11%	-20%
COc1cc(C(O)c2nc(-c3cncnc3)cs2)ccc1F (stereo not drawn)	-8%	3%[18.4 µM]
O=C(O)C(CCc1ccccc1)N1CCOCC1 (stereo not drawn)	0%	0%

Further entries follow.
Results follow in this order: StopGo reporter, RE007 growth inh
COc1cccc(NC(=O)C(=O)NCC2CCCN2S(=O)(=O)c2cccs2)c1 (stereo not drawn)
 : 18%, -5%
Nc1ncnc2c1ncn2[C@@H]1O[C@H](C(=O)N2CCN(c3ccc(Cl)cn3)CC2)[C@@H](O)[C@H]1O
 : -5%, 7%
Cc1ccc(N(Cc2ccccc2)C(=O)CSC(C)C(=O)Nc2cc(C)on2)cc1 (stereo not drawn)
 : 29%, 15%
CSC12CCCN(CCC(C(C)(C)C)C1)C2=O (stereo not drawn)
 : -1%, -11%
CCOC(=O)[C@H]1[C@H]2COc3ccc(Br)cc3[C@H]2N2C(=O)CN(Cc3ccc(Cl)cc3)C(=O)[C@@]12C
 : -26%, 2%
CCOC(=O)N1CCN(C(C(=O)NC2CCCC2)c2cccc(OC)c2OC)CC1 (stereo not drawn)
 : -15%, -15%
CCCc1cc(CCC)n2nc(N)nc2n1
 : -17%, -11%
Nc1ncnc2c1ccn2[C@H]1CN(Cc2ccc(Cl)cc2)C[C@@H](CO)O1
 : -29%, -3%
Cc1cc2c(cc1C)-n1nnnc1C(N(C)Cc1ccccc1)C(=O)N2 (stereo not drawn)
 : -20%, 3%
COc1cc(OC)cc(-c2c(Sc3ccccc3)c3cc(-c4ccc(SC)cc4)ccc3n2C)c1
 : -25%, -2%
CCOC(=O)C(C#N)=C1CCC=C(C)C1
 : 8%, -6%
CCCNC(=O)C1(C)CCN(C(=O)c2cccc(C#N)c2)C1 (stereo not drawn)
 : -7%, 3%
CC(C)C[C@@H]1CN(CCCC[C@H]2CNC(=O)C(=O)N2CCC2CCCCC2)C(=O)C(=O)N1Cc1ccccc1
 : 24%, -2%
CC1(C)CC2(C)CC(=O)C1C(C(=O)O)C2C(=O)O (stereo not drawn)
 : -8%, -10%
CC1(C(=O)NS(=O)(=O)c2cccc(Cl)c2)CCN1C(=O)Cc1ccc(-c2ccccc2)cc1 (stereo not drawn)
 : -8%, 8%
O=C1NN(CCO)C(=S)Nc2ccccc21
 : 10%, -2%
C=C1CCN([C@@H](Cc2ccccc2)C(=O)NCc2ccc(Cl)c(Cl)c2)S(=O)(=O)c2ccccc21
 : -8%, 1%
CCOC(=O)[C@]12CCCC=C1N(Cc1cccc3ccccc13)C(=O)[C@H](CC(=O)N1CCC(c3ccccc3)CC1)C2
 : -20%, -5%
COc1cc(OC)c(C(=O)Nc2cc(S(=O)(=O)N3CCOCC3)ccc2N2CCN(C)CC2)cc1OC
 : 13%, 22%
O=C1c2ccccc2C2N1CCCN2C(=O)c1sc2ccccc2c1Cl (stereo not drawn)
 : -1%, 18%
CCCCNC(=O)c1nc(C2CCN(S(=O)(=O)c3ccc(F)c(F)c3)CC2)oc1-c1cccc(C(F)(F)F)c1
 : -10%, 8%
COc1ccc(C(NC(=O)C2CCN(CCCOc3ccccc3)CC2)c2cccs2)cc1 (stereo not drawn)
 : -18%, 13%[18.4 µM]
COc1ccc(CN2C(=O)C(CC(=O)NCc3ccco3)CC(C(=O)N(C)C)=C2C)cc1 (stereo not drawn)
 : -1%, -4%
CC(C)CN1Cc2cc(-c3cccc(F)c3)ccc2-n2nncc2C1
 : -1%, ?
O=C(C[C@H]1CC[C@@H](NC(=O)c2ccncc2)[C@@H](CO)O1)NCC1CC1
 : -13%, 9%
CCCCCC(=O)N1C[C@H](n2cc(-c3ccc(F)cc3)nn2)[C@@H](O)C[C@@H]1c1ccc(Cl)cc1
 : -30%, 12%
CCN(CC(=O)Nc1ccc(NC(C)=O)cc1)C(=O)C1(c2ccc(Cl)cc2)CCC1
 : ?, -14%
CN(C(=O)c1ccc(NC(=O)Cc2ccc(NC(=O)C3CCN(S(=O)(=O)c4cccc([N+](=O)[O-])c4)CC3)cc2)cc1)C1CCCC1
 : 1%, 10%
CC1Cc2[nH]c(=S)[nH]c(=O)c2C(C(C)C)O1 (stereo not drawn)
 : -9%, 19%
C[C@H](CO)N1C[C@H](C)[C@@H](CN(C)Cc2ccc(Oc3ccccc3)cc2)Oc2cc(Br)ccc2S1(=O)=O
 : 0%, 12%
COc1ccc(C(=O)N2CCOC2CNC(=O)C(=O)NCc2ccc(C)cc2)cc1 (stereo not drawn)
 : -19%, 0%
COc1ccccc1Cc1c(-c2cccc(Cl)c2)nc2ccc(Br)cn12
 : 19%, 11%
Nc1[nH]c(C(=O)c2ccccc2)c(-c2ccc(Cl)cc2)c1C(=O)NCc1ccco1
 : -1%, 10%
COc1ccc([C@H]2C[C@@H](O)[C@H](n3cc(C4CC4)nn3)CN2CC2CCCCC2)cc1
 : -22%, -1%
Cc1cccc(C(=O)NC(=S)NC(C)c2ccccc2)c1 (stereo not drawn)
 : -10%, -16%
Cc1nc(C(F)(F)F)ccc1C(=O)N1CCC1(C)C(=O)NS(=O)(=O)c1cccc(F)c1 (stereo not drawn)
 : -12%, 12%[18.4 µM]
Cc1ccn2c(Cc3ccccc3)c(-c3ccccc3)nc2c1
 : 17%, -13%
O=C(NCc1ccc(F)cc1)c1cc(C2CCCN(C(=O)c3ccccn3)C2)on1 (stereo not drawn)
 : -3%, 12%
Cc1noc(C)c1C(=O)N1CCC1(C)C(=O)NS(=O)(=O)c1ccc(Br)cc1 (stereo not drawn)
 : 3%, 3%
Clc1ccc(CNCC2CCCO2)c(Cl)c1 (stereo not drawn)
 : -5%, -2%
Cn1cc(-c2csc(C(C)(O)c3cccc(F)c3)n2)cn1 (stereo not drawn)
 : -7%, -11%[18.4 µM]
C[C@@H]1CN([C@@H](C)CO)C(=O)CCCn2nncc2CO[C@H]1CN(C)Cc1cccc(C(F)(F)F)c1
 : -24%, -29%
C[C@@H](c1ccccc1)N1C[C@H](COCc2ccccc2)Oc2cc(N3CC[C@@H](O)C3)ccc2S1(=O)=O
 : 31%[activator], -4%
Cc1ccc(F)cc1NC(=O)COC(=O)C1CC2CCCC(C1)C2=O (stereo not drawn)
 : -23%, 4%
O=C1Cc2cccc(=O)c(O)c2C(=O)O1
 : -21%, 2%
Cc1ccc(S(=O)(=O)N2C(c3cccc(Cl)c3)CC=C(C(=O)O)C2c2cccc(Cl)c2)cc1 (stereo not drawn)
 : 2%, ?
C=CC1=CCN(S(=O)C(C)(C)C)[C@H]1CCO (stereo partly drawn)
 : -28%, -13%
Cc1nnc(NCC=Cc2ccccc2)s1
 : 11%, 12%
NC(=O)N/N=C/c1sc(N2CCCCC2)nc1-c1cccs1
 : 32%[activator], -28%
COc1cccc(C(C)(O)c2nc(-c3ccc(OC)nc3)cs2)c1 (stereo not drawn)
 : ?, 15%

Continuation.
Results follow in this order: StopGo reporter, RE007 growth inh
C=CC[N+](C)(C)c1ccc(CCC(=O)CCc2ccc([N+](C)(C)CC=C)cc2)cc1
 : -16%, -7%[18.4 µM]
COC(=O)C[C@@H]1OC[C@H](CO)N1S(=O)(=O)c1ccc(C)cc1
 : -8%, 2%
CC1(C(=O)Nc2ccc3c(c2)OCCO3)CSCC(=O)N1C1CC1 (stereo not drawn)
 : -10%, 0%
C[C@@H]1CN([C@H](C)CO)C(=O)CCCn2nncc2CO[C@H]1CN(C)S(=O)(=O)c1ccc(F)cc1
 : -18%, 24%
CCOc1ccc(NC(=O)CN(C)C(=O)c2cccc(S(=O)(=O)N3CCN(C)CC3)c2)cc1OCC
 : -3%, -6%
O=C(Nc1ccccc1)c1cc(C2COCCN2C(=O)CCCc2ccccc2)on1 (stereo not drawn)
 : 5%, 11%
Cc1ccc(S(=O)(=O)N2CCN(C(=O)[C@H](Cc3ccccc3)NC(=O)c3ccco3)CC2)cc1
 : -11%, 0%
C/C=C/c1cccc(-c2nc(C(=O)N3CCOCC3)cc3c2[C@H](CCO)N(C(=O)NC(C)C)C3)c1
 : -19%, 16%
CCCNC(=O)c1cc(C2CCCCN2C(=O)c2cc(F)ccc2C)on1 (stereo not drawn)
 : -10%, -1%
C[C@H](CO)N1C[C@H](C)[C@@H](CN(C)S(=O)(=O)c2ccc(C#N)cc2)OCc2cn(nn2)CCCC1=O
 : -14%, -12%
O=C(OCc1cn([C@H]2C[C@H](c3ccc(Cl)cc3)N(Cc3cccs3)C[C@@H]2O)nn1)c1ccccc1
 : 0%, -13%
CC(=O)N1CCN(C(C(=O)Nc2c(C)cccc2C)c2cccc(F)c2)CC1 (stereo not drawn)
 : -10%, 6%
CNc1ccc(-c2cc(OC)ccc2OC)cn1
 : -15%, -29%
C=CCn1c2c(c3ccccc31)CCC2
 : -16%, 6%[18.4 µM]
FC(F)(F)c1ccccc1Cc1c(-c2ccco2)nc2ccc(Br)cn12
 : ?, -29%
COc1cc(/C=C/C(=O)OCC(=O)c2ccc[nH]2)ccc1O
 : 44%[activator], 17%
COc1ccc(NC(=O)C2(C)CCN2CCc2ccccc2)cc1OC (stereo not drawn)
 : -12%, 4%
O=C(N/N=C/c1ccc(Br)cc1)c1ccc(NC(=O)c2ccccc2)cc1
 : -1%, -9%
O=S(=O)(c1ccc(F)c(F)c1)N1CCCCCCC1
 : -20%, -5%
C[C@H](CO)N1C[C@H](C)[C@H](CN(C)S(=O)(=O)c2ccc(F)cc2)OCc2cnnn2CCCC1=O
 : 34%[activator], 5%
COc1ccccc1NC(=O)Nc1nc(C(N)C2CCCCC2)cs1 (stereo not drawn)
 : -19%, 20%
CC1Cc2ccccc2N1CC(=O)Nc1cc(S(=O)(=O)N2CCOCC2)ccc1Cl (stereo not drawn)
 : -2%, 4%
CC1(C(=O)NCc2ccccc2Br)CCN1C(=O)CCc1ccc(Cl)cc1Cl (stereo not drawn)
 : -24%, -6%
CN(C(=O)Cc1ccc2c(c1)OCO2)C1CCCN(Cc2ccccc2F)C1 (stereo not drawn)
 : -2%, 0%

Only part of the results is shown; count on the stated rates, not on these rows.
